Screening data deposited in PubChem BioAssay by National Center for Advancing Translational Sciences (NCATS).
VACV mCherry inh: inhibitors of vaccinia virus infection (mCherry reporter signal); Potency, µM (highest dose often 36.5 µM), inactives show top-dose activity change, negative = inhibition, actives largely listed as inhibitors; 0.63% of 310,000 active; Vaccinia virus mCherry reporter infection, fluorescence; about a quarter of the inactives have no number; active = well fitted inhibition curve with a large enough effect; inconclusive = small, poorly fitted or top-dose-only effect; inactive = no such curve, though single readings can be large or run the other way; tested in A549 cells; further: nearly all actives have a fitted effect of over 35% in size; inactives centre near -10
VACV Venus inh: vaccinia inhibition (Venus reporter); Potency, µM (top dose mostly 36.5 µM), inactives show at the highest dose activity change, negative = inhibition, actives largely listed as inhibitors; AID 720580; Vaccinia virus Venus reporter expression, fluorescence; 0.46% of 330,000 active; active means well fitted inhibition curve with a large enough effect; inconclusive means small, poorly fitted or top-dose-only effect; inactive means no such curve, though single readings can be large or run the other way; tested in A549 cells; further: nearly all actives have a fitted effect of over 30% in size; inactives centre near -10
* = called active by the depositor; i = inactive; ? = inconclusive; · = not tested or not shown; & = joins results of further samples; [ ] = another dose, or the depositor's remark. On the % scale 0 is the no-effect control and ±100 the full control effect; potency means the concentration at half of the fitted maximal effect.

Order of results – VACV mCherry inh, VACV Venus inh
CC(C)(O)C#Cc1ccc(C(=O)N2CCC(C(N)=O)(N3CCCCC3)CC2)o1
 : -2%, -6%
Cc1sc(N)nc1-c1ccccc1
 : -7%, -3%
Cc1cc(C)nc(SCC(=O)c2ccc(C)c(C)c2)n1
 : -5%, -7%
O=C(Nc1cc(Sc2ccccn2)cc([N+](=O)[O-])c1)c1ccc([N+](=O)[O-])cc1
 : -21%, ?
CCC(C)NC(=O)C1CCC(=O)N(c2ccc3c(c2)OCO3)C1c1ccc(OC)cc1 (configuration not stated)
 : -22%, -13%
COc1ccccc1OCCNC(=O)c1ccc2c(c1)OCCO2
 : -18%, -14%
Cc1ccc(-n2[nH]c(C)c(C=Nc3ccc(Br)cn3)c2=O)cc1
 : -13%, ?
CCOc1ccc(OCC(=O)NCCc2nc3ccccc3[nH]2)cc1
 : -10%, -1%
Cc1cc(C)cc(CC(=O)N2CCC2(C)C(=O)NS(=O)(=O)c2ccccc2Cl)c1 (configuration not stated)
 : i, -9%
CC(C)c1ccc(OCC(=O)NNC(=O)c2cnccn2)cc1
 : -9%, -4%
C[N+]1(C)CCN(c2ccccc2)CC1
 : -16%, -11%&-3%
NC(=O)c1c(NC(=O)CN2CCOCC2)sc2c1CCC2
 : ·, 56%[activator]
N#Cc1ccc(OCC(O)CS(=O)(=O)c2ccc(F)cc2)cc1 (configuration not stated)
 : -13%, -5%
CC1CCCCN1S(=O)(=O)Cc1ccccc1Cl (configuration not stated)
 : i, -11%
CC(C)C[C@H](NC(=O)OCC1c2ccccc2-c2ccccc21)C(=O)O
 : -10%, -6%
CC(C)[C@H](NC(=O)C1CCN(C(=O)[C@H](Cc2ccccc2)NC(=O)OC(C)(C)C)CC1)C(=O)O
 : -13%, 1%
C=CCNC(=O)c1ccc(Cn2cc(C(F)(F)F)ccc2=O)cc1
 : i, -8%
COc1ccccc1CNC(=O)c1cc2c(C)nn(Cc3ccc(F)cc3)c2s1
 : ·, -28%
CN1CCN(c2nc3cc(N4CCOCC4)ccc3s2)CC1
 : -8%, -14%
CCOC(=O)C1CCN(C(=O)Cn2nc(C)n3nc(-c4ccc(CC)cc4)cc3c2=O)CC1
 : -13%, -12%
Clc1ccc(-c2noc3ncnc(NCCCN4CCN(c5ccccc5)CC4)c23)cc1
 : -19%, -17%
COc1cccc(CNC(=O)c2c3c(nc4ccccc24)C(=O)N(C2CCCCC2)C3)c1
 : -15%, -7%
O=C(OCc1ccccc1)N1CCC2CC1c1cc(N3Cc4ccccc4-n4nncc4C3)ccc12 (configuration not stated)
 : ?, -16%
CCOc1cc(N2CCOCC2)c(OCC)cc1NC(=O)CN1C(=O)NC2(CCCCC2)C1=O
 : i, -3%
COc1ccccc1C(=O)n1nc(C)cc1C
 : -12%, -10%
Oc1oc(-c2cccc3ccccc23)nc1/C=N/c1nccs1
 : -14%, ?
Cc1nc(-c2ccc(S(=O)(=O)Nc3cc(F)ccc3F)cc2)co1
 : i, 6%
O=C(/C=C/c1ccc2c(c1)OCO2)c1ccc(F)cc1
 : ?, -13%
O=C(CNC(=O)c1cccc(F)c1)OCCOc1cccc(Cl)c1
 : -11%, -12%
COc1cc(C2CC(=O)Nc3cc4c(cc32)OCO4)cc(OC)c1O (configuration not stated)
 : -14%, -14%
COc1ccc(C)cc1NC(=O)Cn1c(=O)n(Cc2nc(C)no2)c(=O)c2ccccc21
 : -20%, -5%
COc1cccc(=O)c2c(C)oc(C)c12
 : ·, -22%
c1cc2c(cc1CCNC1CCCCCC1)OCO2
 : ·, -7%
O=C(Oc1c(CN2CCOCC2)cc(Cl)c2cccnc12)c1ccccc1
 : ?, ?
O=C(CP(=O)(c1ccccc1)c1ccccc1)N1CCOCC1
 : i, -3%
COC(=O)[C@@H]1CCCN1C(=O)c1cc(NC(=O)C2CCC2)c2c(c1)nc(-c1ccncc1)n2C
 : -13%, -7%
O=C(COc1ccc(Cl)cc1)NCc1ccncc1
 : i, -12%
Cc1cc(C)c2nc(N)sc2c1
 : ·, -27%
Cc1cc2cc(CCNC(=O)C(=O)c3c[nH]c4ccccc34)c(=O)[nH]c2cc1C
 : -5%, -22%
COC(=O)CN(c1ccccc1[N+](=O)[O-])S(=O)(=O)c1ccccc1
 : 11%, 1%

Some of the entries so far, as tab-separated lines:
smiles	VACV mCherry inh	VACV Venus inh
CC(C)C[C@H](NC(=O)OCC1c2ccccc2-c2ccccc21)C(=O)O	-10%	-6%
CC(C)[C@H](NC(=O)C1CCN(C(=O)[C@H](Cc2ccccc2)NC(=O)OC(C)(C)C)CC1)C(=O)O	-13%	1%
C=CCNC(=O)c1ccc(Cn2cc(C(F)(F)F)ccc2=O)cc1	i	-8%
COc1ccccc1CNC(=O)c1cc2c(C)nn(Cc3ccc(F)cc3)c2s1	·	-28%
CN1CCN(c2nc3cc(N4CCOCC4)ccc3s2)CC1	-8%	-14%
CCOC(=O)C1CCN(C(=O)Cn2nc(C)n3nc(-c4ccc(CC)cc4)cc3c2=O)CC1	-13%	-12%
Clc1ccc(-c2noc3ncnc(NCCCN4CCN(c5ccccc5)CC4)c23)cc1	-19%	-17%
COc1cccc(CNC(=O)c2c3c(nc4ccccc24)C(=O)N(C2CCCCC2)C3)c1	-15%	-7%
O=C(OCc1ccccc1)N1CCC2CC1c1cc(N3Cc4ccccc4-n4nncc4C3)ccc12 (configuration not stated)	?	-16%
CCOc1cc(N2CCOCC2)c(OCC)cc1NC(=O)CN1C(=O)NC2(CCCCC2)C1=O	i	-3%
COc1ccccc1C(=O)n1nc(C)cc1C	-12%	-10%
Oc1oc(-c2cccc3ccccc23)nc1/C=N/c1nccs1	-14%	?
Cc1nc(-c2ccc(S(=O)(=O)Nc3cc(F)ccc3F)cc2)co1	i	6%
O=C(/C=C/c1ccc2c(c1)OCO2)c1ccc(F)cc1	?	-13%
O=C(CNC(=O)c1cccc(F)c1)OCCOc1cccc(Cl)c1	-11%	-12%
COc1cc(C2CC(=O)Nc3cc4c(cc32)OCO4)cc(OC)c1O (configuration not stated)	-14%	-14%
COc1ccc(C)cc1NC(=O)Cn1c(=O)n(Cc2nc(C)no2)c(=O)c2ccccc21	-20%	-5%
COc1cccc(=O)c2c(C)oc(C)c12	·	-22%
c1cc2c(cc1CCNC1CCCCCC1)OCO2	·	-7%
O=C(Oc1c(CN2CCOCC2)cc(Cl)c2cccnc12)c1ccccc1	?	?
O=C(CP(=O)(c1ccccc1)c1ccccc1)N1CCOCC1	i	-3%
COC(=O)[C@@H]1CCCN1C(=O)c1cc(NC(=O)C2CCC2)c2c(c1)nc(-c1ccncc1)n2C	-13%	-7%
O=C(COc1ccc(Cl)cc1)NCc1ccncc1	i	-12%

(more compounds)
Order of results – VACV mCherry inh, VACV Venus inh
Cc1ccc(NC(=O)CN(C)C(=O)COC(=O)CNS(=O)(=O)c2ccc(F)c(F)c2F)cc1
 : -9%, 5%
CCOc1cccc(C(=O)N(Cc2ccco2)C2CCS(=O)(=O)C2)c1 (configuration not stated)
 : -1%, 2%
COc1ccc(C(=O)NCC2Cc3c(F)ccc(-c4nc(C)cnc4C)c3O2)cc1F (configuration not stated)
 : -6%, 2%
Cc1ccc(-n2ncc(C(=O)NC3CC3)c2C2CCN(C(=O)OC(C)(C)C)CC2)c(C)c1
 : i, -20%
CNc1ncnc2c1ncn2[C@H]1CN(Cc2cccnc2)C[C@@H](CO)O1
 : 30%[activator], -6%
CNCc1ccccc1Sc1cccc(O)c1
 : -18%, -21%
Cc1ccc(NC(=O)c2ccc3snnc3c2)cc1C
 : 2%, -3%
Cn1ncc2c(NCc3ccccc3Cl)nc(NCCO)nc21
 : -11%, -7%
COc1ccc(OCC(=O)Nc2cc(OC)ccc2N2CCCCC2)cc1
 : i, -8%
Cc1cc(-c2cc(-c3ccc(Cl)cc3)on2)nc(NC2CCCC2)n1
 : -12%, -17%
Cc1ccccc1CSCCNC(=O)CN(c1ccccc1)S(=O)(=O)N(C)C
 : -3%, -1%
C/C(=N\NC(=O)Cc1cccn1C)c1ccc2ccccc2c1
 : ?, -23%
CCCOc1ccc(C(F)(F)F)cc1NS(=O)(=O)c1ccc(Cl)nc1
 : 11µM*, ?
O=C(O)Cc1sc(NC2CCCCC2)nc1-c1ccc(Cl)cc1
 : ?, 7%
COC(=O)C1C(=O)C2=C(CC1C)NC(=O)CC2c1ccccc1 (configuration not stated)
 : i, -14%
Cc1nn(C)c(C)c1S(=O)(=O)N1CCC(C(=O)NC2CCCc3ccccc32)CC1 (configuration not stated)
 : 2%, -13%
CC(C)C(=O)N1CCC1(C)C(=O)Nc1ccccc1OC(F)F (configuration not stated)
 : -6%, 4%
Cc1ccc(CCN2CC(C(=O)NCCCN3CCCCCC3)CC2=O)cc1 (configuration not stated)
 : ·, -15%
COc1cc(C(O)P(=O)(OCCC(C)C)c2ccc(N(C)C)cc2)cc(OC)c1OC (configuration not stated)
 : -1%, 1%
O=S(=O)(Nc1cccc2ccccc12)c1cccc2nonc12
 : 0%[7.34 µM], -7%[7.34 µM]
CCCCC(NS(=O)(=O)c1ccc(C)cc1)C(=O)Oc1ccc2c3c(c(=O)oc2c1)CCC3 (configuration not stated)
 : i, -12%
CCOCCCNC(=O)C(c1ccc(Cl)cc1)N(Cc1cccs1)C(=O)c1ccccn1 (configuration not stated)
 : -9%, 3%
CCCN(CCC)Cc1cc2ccccc2c2c1COC2
 : -9%, -3%
C=CCc1ccccc1OCC(CN1CCCCC1)OC(C)=O (configuration not stated)
 : -14%, -13%
O=C(Cn1nnc2ccccc2c1=O)N[C@H](C(=O)O)c1ccccc1
 : -10%, -5%
COc1ccc2oc(C(=O)OCC(=O)NCCN3C(=O)CSC3=O)c(C)c2c1
 : -10%, -4%
COc1ccc(CNC(=O)C(NC(C)=O)C(C)C)cc1OC (configuration not stated)
 : -5%, -20%
Cc1onc(-c2c(F)cccc2Cl)c1C(=O)OCC(=O)Nc1c(C)n(C)n(-c2ccccc2)c1=O
 : -23%, -22%
COCCn1c(CNC(=O)c2cc([N+](=O)[O-])ccc2Cl)nc2cccnc21
 : -12%, -12%
O=C(CCCC(=O)Nc1ccccc1Br)N/N=C/c1c(F)cccc1Cl
 : -25%, -12%
O=C(CSc1nnc(COc2ccccc2)n1-c1ccccc1)c1ccccc1
 : -3%, -19%
O=C(Nc1ccc(O)cc1)/C(=C\c1cccs1)NC(=O)c1ccccc1
 : i, -14%
Cn1c2c(c(=O)n(C)c1=O)CN(Cc1ccc(F)cc1)CN2
 : ·, 14%
Cc1ccc(S(=O)(=O)NC(C)C(=O)NC2CCCCCC2)cc1 (configuration not stated)
 : -7%, -12%
Cc1cccc(C(=O)NCCNC(=O)c2cccc(C)c2)c1
 : i, -24%
O=C(O)c1ccccc1-c1ccccc1C(=O)Nc1ccc2c(c1)oc(=O)c1ccccc12
 : i, 0%
COc1ccc(N2CCN(C(=O)CNC(=O)c3cn(-c4ccccc4OC)c(=O)c4ccccc34)CC2)cc1
 : -7%, -2%
Cc1cccc(NC(=O)CN2C(=O)N/C(=C\c3ccc(-c4cccc(C(=O)O)c4)o3)C2=O)c1
 : i, -2%
CNc1ccc(/C=C/C(=O)c2cccc3ccccc23)cc1[N+](=O)[O-]
 : -17%, -17%
Cc1ccsc1CN(C)C(=O)c1ccc(Oc2ccccc2)cc1
 : -23%, -14%
CCn1c(=O)c2c(cnn2C)c2ccccc21
 : -6%, -17%
O=C(COc1ccc(Cl)cc1Cl)NC(=S)N1CCCc2ccccc21
 : -10%, -20%
O=C(O)C1CCN(c2nc(-c3ccccc3)nc3c2oc2ccccc23)CC1
 : ·, -21%
CC1=N/C(=C\c2ccc([N+](=O)[O-])cc2)C(=O)N1c1ccc(Br)c(C)c1
 : 3%, -10%
CC1Cc2cc(S(=O)(=O)N(C)c3ccc(Br)cc3)ccc2N1C(=O)C1CC1 (configuration not stated)
 : -8%, 1%
CCCCOc1ccc(N(CC(=O)NC2CCCCC2)C(=O)CCC(=O)Nc2ccccn2)cc1
 : -4%, 1%
COc1ccc(NC(=O)/C=C/C(=O)O)cc1Cl
 : -1%, -11%
Cc1cccc(NC(=O)CSc2nc(-c3ccccc3)cn2-c2ccccc2)c1C
 : -12%, -13%
CC(c1ccccn1)N(Cc1ccco1)C(=S)Nc1cccc(F)c1 (configuration not stated)
 : -3%, -4%
Cc1ccnc(NS(=O)(=O)c2ccc(NC(=O)C34CC5CC(CC(C5)C3)C4)cc2)n1
 : -19%, -14%
Cc1cccc(NC(=O)c2nc[nH]c2C(=O)NCCCCCNC(=O)OC(C)(C)C)c1
 : ?, ?
O=C(COC(=O)c1ccc(Cl)nc1)Nc1c(Cl)cccc1C(F)(F)F
 : -1%, -13%
CCOC(=O)c1c(NC(=O)CSc2nc3ccccc3o2)sc(C(C)=O)c1C
 : -10%, -3%
COC(=O)C1CC(O)CN1C(=O)Nc1cccc(C(F)(F)F)c1 (configuration not stated)
 : i, -19%
COc1ccccc1NC(=O)CSc1nnnn1C
 : -1%, -11%
Cc1ccc(S(=O)(=O)N2CCN(C(=O)c3c(-c4ccccc4)noc3C)CC2)cc1
 : -1%, 0%
C=CCOc1cccn2c(N(C)C(=O)c3ccc(OC)cc3)c(CC)nc12
 : -9%, -6%

Given as tab-separated lines: part of the list above.
SMILES	VACV mCherry inh	VACV Venus inh
COc1ccccc1C(=O)n1nc(C)cc1C	-12%	-10%
Oc1oc(-c2cccc3ccccc23)nc1/C=N/c1nccs1	-14%	?
